VDR inh: Inhibitors of the vitamin D receptor (VDR): qHTS. 400,000 tested, 0.93% active. VDR-SRC2-3 peptide fluorescence polarization, 2 h. Potency, µM, inactives show max response, negative = inhibition, most hits filed as inhibitors. Vitamin D3 receptor (Homo sapiens), P11473. AID 504847, 2011; active = well fitted inhibition curve with a large enough effect; inconclusive = small, poorly fitted or top-dose-only effect, or another doubt; inactive = no such curve, though single readings can be large or run the other way; also: series mostly up to about 120 µM
Target sequence (P11473 whole entry, looked up): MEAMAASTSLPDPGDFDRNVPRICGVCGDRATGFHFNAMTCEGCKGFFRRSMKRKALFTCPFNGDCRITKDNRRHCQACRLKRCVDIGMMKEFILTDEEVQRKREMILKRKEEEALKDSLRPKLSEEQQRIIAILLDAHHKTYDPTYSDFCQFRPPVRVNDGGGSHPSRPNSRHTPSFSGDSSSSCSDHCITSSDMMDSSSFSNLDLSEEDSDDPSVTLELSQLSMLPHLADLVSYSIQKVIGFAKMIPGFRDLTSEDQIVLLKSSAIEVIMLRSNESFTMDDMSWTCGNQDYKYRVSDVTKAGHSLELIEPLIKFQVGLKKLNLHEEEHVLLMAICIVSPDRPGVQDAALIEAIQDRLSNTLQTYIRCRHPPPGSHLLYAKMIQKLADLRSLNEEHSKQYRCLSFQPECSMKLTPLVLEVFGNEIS
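Inhibition of the VDR/SRC2-3 peptide interaction is quantified by fluorescence polarization. Compounds (23 nl, pintool) incubate with the reagents for 2 hours at ambient room temperature.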
* marks the source's active call; other numbers are inactive results; u = inconclusive; & = joins results of further samples; [ ] = dose if it differs, or a comment. % is scaled to controls: 0 for no effect and ±100 for the full control effect; potency is read from the fitted curve at half-maximal effect. An excerpt; the hit share may differ from the screen's.

mol	VDR inh
Nc1nc(-c2nc3ccccc3[nH]2)cs1	3%
O=C(Nc1ccccc1N1CCOCC1)c1cccnc1	7%
Cc1nn2c(=O)cc(COC(=O)c3ccccc3NC(=O)c3ccccc3C)nc2s1	3%
COc1ccc(/C=C(\NC(=O)c2ccc(OC)c(OC)c2)C(=O)N2CCN(C)CC2)cc1	4%
COC(=O)c1cc(C(=O)Nc2ccc(S(N)(=O)=O)cc2)cc([N+](=O)[O-])c1	24%
COc1cc(NC(=O)c2cccs2)c(C(=O)OCC(=O)NC(C)c2ccccc2)cc1OC (configuration not stated)	9%
CCCCOc1ccc(CNC(=O)c2cnc3sc(N4CCOCC4)nn3c2=O)cc1	6%
COc1ccccc1C(=O)NCC(=O)OC(C)C(=O)NC1CCCCC1C (configuration not stated)	6%
COc1ccc(C2CC(=O)c3cnc(NC(=O)c4ccccc4OC)nc3C2)c(OC)c1 (configuration not stated)	-1%
Cc1cccc(Nc2c([N+](=O)[O-])cc(C(=O)N3CC(=O)Nc4ccccc43)cc2[N+](=O)[O-])c1	-4%
CCOc1ccc(C(=O)OCC(=O)c2c(N)n(C)c(=O)n(C)c2=O)cc1OCC	8%
Cc1onc(-c2ccccc2)c1C(=O)Nc1ccc(S(=O)(=O)N2CCOCC2)cc1	-6%
Cc1cc(C(=O)N/N=C/c2c(C)n(C)c3ccccc23)n[nH]1	4%
CCN(CC)CCNc1ncnc2c1sc1nc(N3CCOCC3)c3c(c12)CC(C)(C)SC3	-5%
O=C(Nc1ccc(Cl)cc1)Nc1nnc(/C=C/c2ccccc2)s1	-1%
COc1ccc(C(=O)CN2C(=O)NC3(CCCc4ccccc43)C2=O)c(OC)c1 (configuration not stated)	-1%
CCN(CC)CCOc1ccc(/C(=C(/Cl)c2ccccc2)c2ccccc2)cc1	u
COc1ccccc1Oc1ccc(S(=O)(=O)Nc2cccnc2)cc1	8%
CN1CCN(S(=O)(=O)c2ccc(Cl)cc2)CC1	-22%&-17%
COCCNC(=O)CCCCCN1C(=O)CCC1=O	-3%
OCC[C@H]1C[C@@H](O)[C@H](O)[C@]2(OCCCc3ccccc32)O1	20%
Cc1ccc2cc(CCNC(=O)c3cccs3)c(=O)[nH]c2c1C	-8%
COc1cccc(/C=N/NC(=O)c2c(-c3ccccc3)noc2C)c1O	-11%
Cc1ccc(CNC(=O)c2cn(C)c3ccc(S(=O)(=O)N4CCC(C)CC4)cc3c2=O)cc1	-6%
CC(CNC(=O)c1nnc(Cc2ccc(F)cc2)o1)c1ccccc1 (configuration not stated)	13%
CC1(C)CC(Nc2ccc(Nc3ccccc3)cc2)CC(C)(C)N1	u
Cc1cccc(N2CCN(C(=O)c3ccc4c(c3)OCCO4)CC2C)c1 (configuration not stated)	3%
Nc1nc(-c2ccc(Cl)cc2Cl)cn1N	-12%
CCN1CCN(C(=O)c2cc(-c3cccnc3)nc3ccc(Br)cc23)CC1	4%
COc1cn(-c2ccccc2)nc1C(=O)Nc1ccccc1	-8%
S=C(NCc1ccco1)N1CCN(C(c2ccccc2)c2ccccc2)CC1	5%
O=C1NNC(c2ccccc2)=N/C1=C\c1ccco1	-12%
Cc1ccccc1NC(=O)CN1CCC(C(=O)c2ccc3c(c2)OCCO3)CC1	5%
O=C(NCCCn1ccnc1)c1cc(-c2ccc3c(c2)OCO3)on1	5%
COCCn1c(SCC(=O)N2CCCCC2)nc2c(c1=O)SCC2	2%
Cc1ccc(N(C)C(=O)c2ccc3c(Cl)c4c(nc3c2)CCC4)cc1C	u
O=C1c2cccc(Cl)c2C(=O)N1c1ccccn1	-6%
CC(=O)Nc1c(F)cc(Br)cc1F	1%
Cc1cc(Nc2cccc(Cl)c2)nc2ccc(NC(=O)Cc3ccc(Cl)cc3)cc12	16%
COC(=O)c1cccc(NC(=S)NCc2ccco2)c1	4%
O=C(NNS(=O)(=O)c1ccccc1)c1cccc(F)c1	-4%
CCN(CC)C(=O)CSc1nc2c(sc(=S)n2Cc2ccco2)c(=O)n1-c1ccccc1	-16%
COCCN(C(=O)CC1CCCC1)c1c(N)n(CC(C)C)c(=O)[nH]c1=O	-7%
CCc1cc2c(SCC(=O)c3ccccc3)ncnc2s1	-13%
Cc1c(C(=O)NCc2ccccc2)oc2ccc(S(=O)(=O)N3CCCC3)cc12	12%
COc1cc(C(=O)Nc2ccc3c(c2)Cc2ccccc2-3)cc(OC)c1OC	5%
O=C(Nc1ccccc1)c1ccc(Cl)c(S(=O)(=O)Nc2ccccc2)c1	-6%
CC(=O)N1c2ccc(S(=O)(=O)NCc3ccco3)cc2CC1C (configuration not stated)	-12%
COc1ccc(CC(=O)N(C)Cc2ccc(C(C)(C)C)cc2)cc1S(=O)(=O)N1CCOCC1	8%
O=C(c1ccc2c(c1)N(Cc1ccccc1Cl)C(=O)c1ccccc1S2)N1CCCC1	1%

Pulled one by one from above, 5 records:
mol	VDR inh
Cc1ccc(CNC(=O)c2cn(C)c3ccc(S(=O)(=O)N4CCC(C)CC4)cc3c2=O)cc1	-6%
COc1ccccc1Oc1ccc(S(=O)(=O)Nc2cccnc2)cc1	8%
CC1(C)CC(Nc2ccc(Nc3ccccc3)cc2)CC(C)(C)N1	u
CCc1cc2c(SCC(=O)c3ccccc3)ncnc2s1	-13%
COCCn1c(SCC(=O)N2CCCCC2)nc2c(c1=O)SCC2	2%

New compounds follow
mol	VDR inh
Nc1c(S(=O)(=O)c2ccccc2)cnc2c(-c3ccc(F)cc3)cnn12	8%
CC(C)(C)CC(=O)Nc1ccccc1N1CCN(c2ccccc2)CC1	-4%
CCn1c(SCC(=O)NCC2CCCO2)nc2c(c1=O)SCC2 (configuration not stated)	10%
Cc1cn(CC(=O)NCC(C)c2ccccc2)c(=O)[nH]c1=O (configuration not stated)	-16%
Cc1ccc(SCCC(=O)NCCSCc2ccccc2C)cc1	-2%
O=C(C(=O)N1CCc2ccccc2C1)c1cn(CC(=O)N2CCCC2)c2ccccc12	-4%
NC(=S)N/N=C/c1ccccc1OC(=O)c1cc2ccccc2oc1=O	-24%
CC(=O)N1c2ccc(S(=O)(=O)NCCC(=O)Nc3ccc(C)cc3Br)cc2CC1C (configuration not stated)	15%
CC1CCN(c2nnc(NC(=O)Cn3c(=O)oc4ccccc43)s2)CC1	-1%
COc1ccc(Cl)cc1NC(=O)CSc1cccc[n+]1[O-]	-18%
Cc1cc(SCC#N)nc2ccccc12	4%
COc1ccc(NC(=O)Cn2nc(C(=O)O)c3ccccc3c2=O)cc1S(=O)(=O)N1CCCCC1	5%
CCC(C)(C)NC(=O)c1cc(C(=O)OC)cc([N+](=O)[O-])c1	-4%
Cc1cccc(C)c1NC(=O)c1nc(S(C)(=O)=O)ncc1N(Cc1ccc(F)cc1)Cc1ccco1	1%
CCN(CC)CCNC(=O)c1ccc2c(c1)sc1nc(-c3ccc(F)cc3)cn12	10%
Cc1ccccc1Nc1c(F)c(F)c(F)c(F)c1C(=O)O	1%
COc1ccc(/C(C)=N/Nc2nc(C)c(C(C)=O)s2)cc1	-1%
CCC(=O)NC1=C(Nc2ccc(N)cc2)C(=O)c2ccccc2C1=O	-11%
O=C(COc1cccc2cccnc12)N1CCc2ccccc21	-17%
Cc1cc(C)cc(NC(=O)Cn2cc(C(=O)c3ccccc3)c(=O)c3ccc(C)nc32)c1	12%
CC1CC=CC2C1C(=O)N(Cc1ccccc1)C2c1ccc2ccccc2c1C=Cc1ccccc1 (configuration not stated)	-5%
CCC(C)N(C(=O)COC(=O)CSc1ccc(C)c(C)c1)C1CCS(=O)(=O)C1 (configuration not stated)	-9%
Cc1ccc(CSCC(=O)N(C)CC(=O)Nc2ccccc2Cl)cc1	-17%
Nc1ccc(NC(=O)c2ccco2)c(Cl)c1	0%
COc1ccc(/C=N/NC(=O)Nc2cccc3nsnc23)c(OC)c1	16%
COC(=O)c1c(C)[nH]c(C(=O)CN2CCOCC2)c1C	16%
CCCCCN1C/C=C\C(c2ccc(OC)cc2)N(Cc2ccc(F)cc2)C(=O)C1 (configuration not stated)	-21%&9%
CCOCC(=O)Nc1ccc([N+](=O)[O-])cc1C	8%
COc1cc2c(cc1OC)C(c1cc(C)ccc1C)CC(=O)N2 (configuration not stated)	-3%
O=C(CSc1nc(-c2ccc(F)cc2)cs1)NCCN1C(=O)CSC1=O	7%
Cc1csc(N/N=C/c2ccc([N+](=O)[O-])cc2)n1	-6%
COc1ccc(Nc2nc(NCCO)nc(OC)n2)cc1	3%
CS(=O)(=O)N(CC(N)=O)Cc1ccc(Cl)cc1	-7%
CCOC(=O)c1c(C)nc(SC)c(C#N)c1-c1ccccc1	-4%
CCOC(=O)c1oc2ccccc2c1CN1CCCCC1	-9%
O=C(NCC(F)(F)F)Nc1ncccn1	4%
OCCC1CN(Cc2ccsc2)CCN1C1CCCC1 (configuration not stated)	-23%
CC(=O)Nc1nnc(CCN2CCCCC2)s1	-13%
COc1ccccc1N1CCN(c2nc3ccc(C)cc3nc2-n2nc(C)cc2C)CC1	-5%
c1ccc2[nH]c(CSc3ncnc4c3oc3ccccc34)nc2c1	-7%
O=C(COc1ccc2ccccc2c1)Nc1cccc2cccnc12	-6%
COCCN1CCN(Cc2nc(Cc3ccc(OC)c(OC)c3)no2)CC1	2%
S=c1[nH]nc(CCc2ccc(Cl)cc2)o1	0%
Cn1nc(C(F)(F)F)c2cc(NC(=O)OCC(C)(C)C)sc21	-1%
CC(=O)N1CCc2c(sc3c2c(=O)n(Cc2ccccc2)c(=O)n3Cc2ccccc2F)C1	-12%
C/C(=N\NC(N)=S)c1ccc(Cl)s1	-18%
CC(Sc1nnc(-c2ccccc2F)n1C1CC1)C(N)=O (configuration not stated)	-2%
COC(=O)c1ccc(COC(=O)CNC(=O)C2CCCCC2)cc1	-6%
O=C(CSc1nnnn1C1CCCCC1)N1CCCC1	-21%
CCN(CC)C(=O)c1ccccc1NC(=O)c1ccccc1	-4%

Another view of part of the listing above:
Structure: COc1ccc(CC(=O)N(C)Cc2ccc(C(C)(C)C)cc2)cc1S(=O)(=O)N1CCOCC1
  VDR inh: 8%

Structure: O=C(c1ccc2c(c1)N(Cc1ccccc1Cl)C(=O)c1ccccc1S2)N1CCCC1
  VDR inh: 1%

Structure: Nc1c(S(=O)(=O)c2ccccc2)cnc2c(-c3ccc(F)cc3)cnn12
  VDR inh: 8%

Structure: CC(C)(C)CC(=O)Nc1ccccc1N1CCN(c2ccccc2)CC1
  VDR inh: -4%

The listing continues.
mol	VDR inh
Cc1nn(C)c(C)c1NC(=O)CSc1nc(Cc2ccccc2)nc2c1cnn2-c1ccccc1	-13%
COc1ccc(-c2[nH]ncc2-c2cnc(C)s2)c(O)c1	0%
C/C(N)=C(/C#N)C(=O)COC(=O)C1CSC2(c3ccc(F)cc3)CCC(=O)N12 (configuration not stated)	0%
Cc1ccccc1NC(=O)C1CCCN1S(=O)(=O)c1ccc2c(c1)n(C)c(=O)c(=O)n2C (configuration not stated)	-14%
CC1(C)CC(NC(=O)Cc2ccccc2[N+](=O)[O-])CC(C)(C)N1	-4%
CN(C)CCCn1c(SCC(=O)Nc2nccs2)nnc1-c1ccncc1	37%[activator]
NC(=O)CC(NC(=O)c1cccc(Br)c1)c1ccc(N2CCC(N3CCCCC3)CC2)c([N+](=O)[O-])c1 (configuration not stated)	-18%
NC(=O)C1CCCN1C(=O)C(Cc1cnc[nH]1)NC(=O)C1CCC(=O)N1 (configuration not stated)	2%
COc1ccccc1NC(=O)CSc1ccc2nnc(-c3ccc(C)cc3)n2n1	-14%
O=C(NC1CCCCCCC1)c1ccc(Br)cc1	-11%
CCOc1ccccc1NC(=O)COC(=O)CSc1ccc(Cl)cc1	-11%
CCOc1ccc(NC(=O)Cn2cc(C(=O)c3ccc(F)cc3)c(=O)c3cc4c(cc32)OCCO4)cc1	0%
CCC1(C)COC2(OC1)C(=O)Nc1ccccc12 (configuration not stated)	-4%
O=C(NCC1CCN(Cc2ccc(F)cc2)CC1)C1CCCN(c2ncnc3c2nc2n3CCCCC2)C1 (configuration not stated)	4%
O=C(CCCNC(=O)/C(=C\c1ccccc1F)NC(=O)c1ccccc1)OCc1ccccc1	12%
COc1ccc(C2c3ccc4ccccc4c3Oc3ncn4nc(Cc5ccccc5)nc4c32)cc1OC (configuration not stated)	16%
CCOC(=O)c1ccc(Nc2ncnc3c2cnn3-c2cccc(Cl)c2)cc1	13%
COc1ccc2c(C)c(CCC(=O)NCc3ccc(Cl)cc3)c(=O)oc2c1C	1%
CCN(CC)S(=O)(=O)c1ccc2c(c1)NC(=O)C1CCCN21 (configuration not stated)	4%
Cc1cc(C)c(NC(=O)Nc2ccccc2C)c(Cl)c1	1%
COc1cccc(N2CCN(C(=O)c3ccc4nc(N5CCC(C)CC5)sc4c3)CC2)c1	-2%
C=CCNC(=S)Nc1sc2c(c1C(=O)OCC)CC(C)(CC)OC2 (configuration not stated)	-19%
COc1ccc2c(C(=O)CN3CC(C)OC(C)C3)c[nH]c2c1 (configuration not stated)	-17%
O=C(Cn1nc(-c2ccc(Cl)cc2)c2ccccc2c1=O)NCC1CCCO1 (configuration not stated)	u
COCC(=O)N1CCC(Oc2ccc(C(=O)NCc3cc(C)n(C)n3)cc2)CC1	-8%

Bioassay records (PubChem)
